Bioassay records: PubChem, National Center for Advancing Translational Sciences (NCATS)
Six1-Eya2 blk: Six1/Eya2 interaction inhibition | AID 651725 | AlphaScreen GST-Six1/His-Eya2 binding, biochemical; hits give low values; control for the full effect not named in the record | 0.56% of 360,000 active | activity change, % (no concentration beside the values); in the data active = activity change below about -65%; inconclusive = about -30% to -65%; inactive = above about -30%; also: % is scaled to controls: 0 for no effect and ±100 for the full control effect; compound concentration not given in the record
Target sequence (O00167 whole entry, looked up): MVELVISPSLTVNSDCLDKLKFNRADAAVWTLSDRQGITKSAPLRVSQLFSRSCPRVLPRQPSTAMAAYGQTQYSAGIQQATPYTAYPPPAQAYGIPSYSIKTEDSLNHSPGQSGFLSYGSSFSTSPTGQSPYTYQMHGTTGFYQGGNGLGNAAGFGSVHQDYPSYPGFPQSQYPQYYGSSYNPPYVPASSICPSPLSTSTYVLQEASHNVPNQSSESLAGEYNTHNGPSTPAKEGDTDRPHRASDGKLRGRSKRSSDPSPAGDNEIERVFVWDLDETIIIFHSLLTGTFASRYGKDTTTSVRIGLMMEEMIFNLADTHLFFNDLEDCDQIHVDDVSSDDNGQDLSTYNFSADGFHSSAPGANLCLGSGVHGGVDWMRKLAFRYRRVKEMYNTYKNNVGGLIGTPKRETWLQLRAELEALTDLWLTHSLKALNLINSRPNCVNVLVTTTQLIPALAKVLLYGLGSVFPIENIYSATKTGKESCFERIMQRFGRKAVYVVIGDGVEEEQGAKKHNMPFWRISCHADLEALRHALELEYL
Target sequence (Q15475 whole entry, looked up): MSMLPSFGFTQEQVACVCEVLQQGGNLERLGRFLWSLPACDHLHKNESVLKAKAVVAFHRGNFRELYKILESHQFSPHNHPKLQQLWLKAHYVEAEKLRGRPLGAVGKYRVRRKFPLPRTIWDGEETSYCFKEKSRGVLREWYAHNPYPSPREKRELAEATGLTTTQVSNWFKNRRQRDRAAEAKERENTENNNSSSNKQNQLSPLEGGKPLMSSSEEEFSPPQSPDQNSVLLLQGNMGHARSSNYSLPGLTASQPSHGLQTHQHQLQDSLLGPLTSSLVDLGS
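Compounds are tested against tagged Six1 and Eya2 proteins bridged by glutathione donor and nickel acceptor beads; after a one-hour incubation at 37 °C without light, AlphaScreen emission is recorded.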
TRPML1 blocker: blocks the human TRPML1 channel. 0.02% of 390,000 active. AID 624415. TRPML1-inducible cells, Ca2+ dye fluorescence, FDSS; hits give low values; inhibition of EC80 agonist-evoked calcium signal. Q9GZU1. activity change, negative = inhibition, % (concentration not given with the values); in the data active means activity change below about -50%; inconclusive means about -30% to -50%; inactive means above about -30%;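 also: stimulus is agonist 54-4 at its EC80 concentration; % is scaled to controls: 0 for no effect and ±100 for the full control effect; compound concentration not given in the record; the text of the record puts the active cut at -80%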
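TRPML1-DL cells, Tet-induced overnight (~16 h, 37 °C) at 1,500 cells/well, were loaded with Ca8 no-wash dye plus quencher for 45-90 min at room temperature. Compounds were pinned during FDSS kinetic reading; agonist 54-4 at EC80 (4 uM final) then added.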
CtBP-E1A blk: CtBP/E1A binding inhibition; AlphaScreen GST-E1A/His-CtBP binding, 1536-well; hits give low values; control for the full effect not named in the record; activity change, % (test concentration not listed); 0.49% of 340,000 active; in the data active means activity change below about -65%; inconclusive means about -30% to -65%; inactive means above about -30%; also: % is scaled to controls: 0 for no effect and ±100 for the full control effect; compound concentration not given in the record
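GST-E1A and His-tagged CtBP (125 nM each as 5X stock) were preincubated with pin-transferred compound for 2 h at 37 °C in the dark, then glutathione donor and nickel acceptor beads were added for 1 h before AlphaScreen reading.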
D2 ag: human D2 receptor agonism in beta-arrestin assay; AID 624465; DiscoveRx PathHunter D2 beta-arrestin, luminescence, 90 min; 100% = 57 uM dopamine signal; activation, % (test concentration not listed); 0.084% of 360,000 active; in the data active = activation above about 40%; inconclusive = about 15% to 40%; inactive = below about 15%; also: compound concentration not given in the record; the text of the record calls up to 30% inactive
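Agonist mode: compounds alone added to overnight-plated D2 PathHunter cells for 90 min at 37 C, with 57 uM final dopamine (EC100) defining full response. Beta-arrestin recruitment detected by chemiluminescent reagent, read after 1 h at ambient temperature.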
TRPML1 agonist: human mucolipin-1 channel agonism; TRPML1-expressing cells, Ca2+ dye fluorescence, FDSS; host cell line not named in the record; reference of the full effect not given here; activation, % (no concentration beside the values); Q9GZU1; 0.12% of 410,000 active; AID 624414; in the data active = activation above about 50%; inconclusive = about 30% to 50%; inactive = below about 30%; also: 0% is about no effect; the text of the record puts the active cut at 80%
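Cells: TRPML1-DL, 1X Tet inducer, ~16 h at 37 degrees C/5% CO2. Dye: ABD Ca8 no-wash + quencher, 45-90 min RT. Read: 10 s baseline, compound add, 110 s agonist phase; 54-4 EC80 (4uM final), 110 s antagonist phase.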
PINK1 expr mod: PINK1 expression modulation. 0.2% of 410,000 active. PINK1 immunofluorescence, high-content cytometry, 24 h. Potency, µM (top dose mostly 76.6 µM), without a hit: at the highest dose activation (PINK1 increase), most hits filed as activators. AID 624263; active = well fitted activation curve with a large enough effect; inconclusive = small, poorly fitted or top-dose-only effect; inactive = flat fitted curve, though single readings scatter; cell line not stated here;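 also: potency is read from the fitted curve at half-maximal effect; % of control where 0% means no effect; nearly all actives have a fitted effect of over 65% in size; a mitochondrial uncoupler was the plate control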
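Stable cell line treated 24 h with compounds at 5 concentrations (CCCP controls), then fixed and immunostained for PINK1 plus nuclear and cell stains; PINK1 immunofluorescence quantified by laser-scanning microplate cytometry.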
Numbers without * were called inactive; ? = inconclusive; . = no result given; [ ] = remark or other dose.

SMILES | Six1-Eya2 blk | TRPML1 blocker | CtBP-E1A blk | D2 ag | TRPML1 agonist | PINK1 expr mod
COc1ccc(NC(=O)CN2C(=O)NC3(CCCC3)C2=O)cc1 | 13 | -2 | -2 | -6.5 | 0.2 | -1.0%
Cc1ccc(Cl)cc1NC(=O)CCCN1C(=O)CCn2nc(-c3cn(C)c4ccccc34)cc21 | . | -5 | . | . | 0.3 | 1.5%
CCOC(=O)c1c(C)n(C)c2ccc(O)c(CN(CC)CC)c12 | -4 | -2 | -1 | -1.8 | -0.4 | -2.4%
CCN1CCN(C(=O)c2c(-c3ccccc3)noc2C)CC1 | 1 | -2 | -8 | 4.3 | 1.1 | -0.4%
C=CCNc1nc(S(=O)Cc2ccc(C)cc2)nc2c1CCCC2 (centres undefined) | -1 | -10 | 3 | 0.0 | 5.8 | -0.3%
CC(CN1CCCC1)OC(=O)c1cccc(F)c1 (centres undefined) | -5 | . | . | -1.7 | . | 1.0%
Cc1nn(Cc2ccccc2)c(Cl)c1C(=O)NCc1ccco1 | -1 | -6 | -2 | -0.2 | -1.2 | -0.2%
CSCCC(NC(=O)c1ccc(Cl)cc1)C(=O)OCC(=O)Nc1ccc(C#N)cc1 (centres undefined) | 1 | 20 | 11 | -1.7 | 1.2 | -0.6%
CC(=O)Nc1ccc(OCC(O)CN2CCN(S(=O)(=O)c3ccc(NC(C)=O)cc3)CC2)cc1 (centres undefined) | -1 | -16 | -1 | -2.4 | 0.0 | 2.7%[38.3 µM]
Cc1cc(NC(=O)Cn2nc(C(F)(F)F)c3c2CCC3)no1 | -9 | -2 | -6 | -1.3 | 1.9 | 5.4%
CCc1ccc(NC(=O)CN2CCCN(S(=O)(=O)c3ccc(F)cc3)CC2)cc1 | -9 | ? | 22 | -1.1 | 0.2 | -0.6%
COc1cc(C)c(CN2CCC(n3nccc3NC(=O)C3CCOC3)CC2)cc1C (centres undefined) | 2 | 4 | 3 | -3.9 | 0.4 | -1.9%
Cn1cccc1C(=O)C(=O)Nc1ccccc1C(F)(F)F | 1 | -18 | 15 | -3.5 | -0.3 | 3.5%
COC(=O)c1cn(CC(=O)NC2CCCCC2)c2ccccc12 | 0 | -12 | -7 | 3.3 | -0.1 | 3.2%
Cc1cc2c(cc1C)NC(CC(=O)Nc1cccc(Cl)c1)C(=O)N2 (centres undefined) | . | 1 | . | . | 1.5 | 1.2%
COCC(C)NC(=O)/C=C/c1ccc(OC)cc1 (centres undefined) | -2 | 27 | . | -0.8 | 0.4 | 0.3%
CC(C)Oc1cc(NC(=O)CS(=O)(=O)CC(=O)N(C)C)c(Cl)cc1Cl | 1 | -19 | 1 | -1.1 | -0.6 | 0.9%
COc1ccc(CN(C)C(=O)CSc2nnc(C3CC3)n2C2CC2)cc1 | 4 | -9 | 0 | -3.2 | -0.1 | -1.2%
COc1ccc(CC(N)c2csc(NC(=O)Nc3cc(OC)ccc3OC)n2)cc1 (centres undefined) | -19 | 55 | ? | 2.8 | 0.2 | -1.6%
Cc1ccc([N+](=O)[O-])c(OCCN2CCCCCC2)c1 | -5 | -8 | -7 | -1.0 | 0.5 | 0.0%
Cc1cc(N2CCN(C3CCCCC3)CC2)n2nc(C)nc2n1 | -1 | 0 | 7 | -5.0 | 0.1 | 0.6%
CS(=O)(=O)N1CCC(C(=O)NCCC2=CCCCC2)CC1 | -3 | -11 | 15 | -2.1 | -0.2 | 1.4%[38.3 µM]
O=C(Nc1nc2c(Br)cccc2s1)C1CC1 | -2 | -6 | -1 | -1.3 | 0.5 | 8.8%
CCc1ccc(N(CC(=O)NC2CCCCC2)C(=O)CNC(=O)c2ccco2)cc1 | 9 | 11 | 9 | 1.3 | -0.1 | 2.7%
CCOC(=O)NC1C=CS(=O)(=O)C1 (centres undefined) | 15 | 0 | 1 | 0.5 | 0.4 | -0.7%
CN(C)c1ccc(C(CNC(=O)c2ccccc2Br)c2c[nH]c3ccccc23)cc1 (centres undefined) | -1 | 2 | -2 | 0.0 | 0.4 | 2.1%
O=C(NC1CC(=O)N(c2ccc3c(c2)OCCO3)C1)c1c(F)cccc1Cl (centres undefined) | . | 45 | . | . | 1.0 | 0.8%
COc1ccc(OCc2cc(C(=O)N(C)C3CCOC3)no2)c(Cl)c1 (centres undefined) | -6 | 3 | -17 | -2.0 | 0.1 | -0.7%
COc1cc(/C=C(\C#N)c2nc3ccccc3s2)ccc1OCC(=O)Nc1ccccc1 | 0 | 42 | 5 | -4.1 | 2.1 | 2.6%
CCOc1ccc(/C=N/NC(=O)CC(=O)NCc2ccccc2)cc1 | 0 | -1 | 0 | -1.0 | -0.2 | 0.3%
CCNc1nc(Oc2ccc(OCC(=O)OC)nn2)nc(N2CCOCC2)n1 | . | 2 | . | . | 0.4 | -0.3%
COc1ccccc1CC(=O)N1CCN(c2cccc(C(F)(F)F)c2)CC1 | -3 | -8 | 3 | 2.3 | 0.9 | 2.1%[38.3 µM]
O=C(c1cc(C2CC2)nc2ccc(Br)cc12)N1N=C(C(F)F)CC1(O)C(F)F (centres undefined) | 7 | -10 | 9 | -5.9 | 0.1 | 9.6%
CSc1nc2cc(S(=O)(=O)N3CCOCC3)ccc2s1 | 3 | ? | 10 | -0.3 | 0.5 | 13%[38.3 µM]
CC1(C)NC(=O)N(CC(=O)N2CCN(S(=O)(=O)c3ccccc3C(F)(F)F)CC2)C1=O | 5 | 27 | -18 | -1.9 | 0.9 | 0.0%
Cn1nnnc1SCCNCc1ccccc1OCc1ccc(Cl)cc1 | -1 | 0 | 7 | -3.2 | -1.8 | 4.2%
Cc1ccc(S(=O)(=O)NCCC(=O)NCC(c2cccs2)N(C)C)cc1 (centres undefined) | 4 | -4 | 1 | -0.8 | 1.3 | 1.5%
COc1ccc(N(C)C(=O)Cc2c(C(=O)O)[nH]c3ccccc23)c(OC)c1 | -1 | -9 | -7 | -1.0 | 0.6 | 1.0%
O=C(CSCC(=O)Nc1ccc2ccccc2c1)NCc1ccccc1 | -1 | -7 | 7 | -0.5 | 1.7 | -0.8%
O=[N+]([O-])c1cc(S(=O)(=O)N2CCCC2)ccc1N/N=C/c1ccncc1 | 4 | -18 | 2 | 1.1 | 1.3 | 1.3%

Some of the entries above, set out differently.
> O=C(NC1CC(=O)N(c2ccc3c(c2)OCCO3)C1)c1c(F)cccc1Cl (centres undefined)
  Six1-Eya2 blk = .	TRPML1 blocker = 45	CtBP-E1A blk = .	D2 ag = .	TRPML1 agonist = 1.0	PINK1 expr mod = 0.8%

> COc1ccc(OCc2cc(C(=O)N(C)C3CCOC3)no2)c(Cl)c1 (centres undefined)
  Six1-Eya2 blk = -6	TRPML1 blocker = 3	CtBP-E1A blk = -17	D2 ag = -2.0	TRPML1 agonist = 0.1	PINK1 expr mod = -0.7%

Back to the main list, repeating the 6 entries before the break.
SMILES | Six1-Eya2 blk | TRPML1 blocker | CtBP-E1A blk | D2 ag | TRPML1 agonist | PINK1 expr mod
CC1(C)NC(=O)N(CC(=O)N2CCN(S(=O)(=O)c3ccccc3C(F)(F)F)CC2)C1=O | 5 | 27 | -18 | -1.9 | 0.9 | 0.0%
Cn1nnnc1SCCNCc1ccccc1OCc1ccc(Cl)cc1 | -1 | 0 | 7 | -3.2 | -1.8 | 4.2%
Cc1ccc(S(=O)(=O)NCCC(=O)NCC(c2cccs2)N(C)C)cc1 (centres undefined) | 4 | -4 | 1 | -0.8 | 1.3 | 1.5%
COc1ccc(N(C)C(=O)Cc2c(C(=O)O)[nH]c3ccccc23)c(OC)c1 | -1 | -9 | -7 | -1.0 | 0.6 | 1.0%
O=C(CSCC(=O)Nc1ccc2ccccc2c1)NCc1ccccc1 | -1 | -7 | 7 | -0.5 | 1.7 | -0.8%
O=[N+]([O-])c1cc(S(=O)(=O)N2CCCC2)ccc1N/N=C/c1ccncc1 | 4 | -18 | 2 | 1.1 | 1.3 | 1.3%
Cc1cc(C(F)F)n2nc(C(=O)O)nc2n1 | 0 | 0 | -4 | -5.0 | 1.9 | 0.0%
CC(C)[C@@H](C(=O)N[C@@H](C(=O)O)c1ccccc1)N1C(=O)N2CCc3c([nH]c4ccccc34)[C@@]2(C)C1=O | -3 | . | -1 | -5.2 | . | 2.1%
CN(c1ccc(C(=O)NCc2ccncc2)cc1)S(C)(=O)=O | 7 | 24 | 5 | -0.3 | -0.8 | 5.0%
CC(C)(C)NC(=O)Cn1nnc(-c2ccccc2NC(=O)c2cnccn2)n1 | -1 | 7 | 0 | -1.7 | -0.2 | 0.6%
COc1ccc2[nH]c(C)c(CCN(Cc3cccs3)C(=S)Nc3ccccc3)c2c1 | -16 | -6 | -1 | 9.6 | 3.9 | 1.7%
COc1ccc(C(=O)c2oc3ccccc3c2NC(=O)COc2ccccc2)cc1 | . | 3 | . | . | -0.4 | 0.2%
COCCNC(=S)Nc1ccccn1 | 4 | 13 | 2 | -4.3 | -0.6 | 1.0%
O=C1COc2cc(S(=O)(=O)NCc3ccco3)c(Cl)cc2N1 | . | -1 | . | . | 0.4 | 0.1%
Cc1ccccc1NC(=O)c1sc2nc(-c3cc4ccccc4oc3=O)[nH]c(=O)c2c1C | . | -8 | . | . | 0.3 | ?
CCCCC(=O)N/N=C(C)/C=C/c1ccccc1F | -1 | -15 | . | -4.5 | 2.6 | 3.3%
CCN(CC)c1ccc(CN(C(=O)c2cc(OC)c(OC)c(OC)c2)C2CCS(=O)(=O)C2)cc1 (centres undefined) | -3 | -2 | 0 | 1.9 | -0.1 | 1.7%
C[C@@H]1CN([C@@H](C)CO)C(=O)CCCn2nncc2CO[C@H]1CN(C)Cc1cccnc1 | 2 | . | 0 | -2.6 | . | -0.4%
CC1CCCC(C)N1C(=O)COC(=O)C(Cc1ccccc1)NC(=O)c1cccs1 (centres undefined) | 2 | 4 | 5 | 1.6 | 0.4 | 3.1%
COc1cccc(/C=N/NC(=O)CCc2n[nH]c(=O)[nH]c2=O)c1O | ? | -20 | ? | 2.1 | 0.8 | -0.3%
CC(C)Oc1ccc(CNCCC2(C(C)C)CCOC(C)(C)C2)cc1 (centres undefined) | 0 | 48 | 5 | -0.6 | -0.3 | 0.1%
COc1ccccc1CC(=O)N1CCCC(CCC(=O)NCc2ccccc2F)C1 (centres undefined) | -9 | -7 | -7 | -0.4 | 1.8 | 3.6%
CC1(C)Cc2nc3nc(SCC(=O)Nc4ccccc4)nc(N)c3cc2CO1 | 9 | 17 | -9 | 1.6 | 0.6 | 1.5%
NC(c1ccncc1)c1ccc(Cl)cc1 (centres undefined) | 5 | -13 | 3 | -1.2 | 0.0 | 0.9%
CCOC(=O)c1cc2c(=O)n3ccccc3nc2n(Cc2ccc(Cl)cc2)c1=N | 2 | . | -4 | -6.7 | . | 0.5%
O=C(NCC1CCCN(C(=O)c2cscn2)C1)c1ccccc1Cl (centres undefined) | 1 | 3 | 9 | -4.2 | 0.4 | 0.3%
COc1cc(NC(=O)C2CC(c3cccc(OC)c3OC)=NO2)cc(OC)c1OC (centres undefined) | -6 | -5 | -10 | -1.7 | 0.6 | 21%[38.3 µM]
CCCN(CCC)C(=O)Cn1c(=O)n(CCCCCC(=O)NCc2ccc3c(c2)OCO3)c(=O)c2sccc21 | . | 2 | . | . | -0.6 | -1.1%
O=C1CCN(S(=O)(=O)c2ccc(Br)cc2)CCN1 | 0 | -23 | 6 | -3.7 | -0.3 | 0.7%
